HIV Env fusion: inhibitors of HIV-1 Env-driven cell-cell fusion, primary screen, HeLa-JRFL effector, CEM21 target cells, luciferase; inhibition, % at 12.3 µM; hit rate 1.1% among 360,000; AID 651610, 2012;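 active = mean replicate inhibition score of at least 50 and every replicate individually at or above 50; inconclusive = only one of the two criteria met; inactive = mean below 50 and not all replicates reaching 50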;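 note: 0% = plate neutral controls and 100% = maraviroc near 300 nM; one replicate is shown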
* = called active by the depositor; ? = inconclusive; [ ] = dose if it differs, or a comment.

HIV Env fusion,SMILES
0.2[16.7 µM],O=C([C@@H]1[C@@H](CO)[C@@H]2Cn3c(cccc3=O)[C@H]1N2CC1CC1)N1CCc2ccccc2C1
-24.0[16.7 µM],CC(C)(C)[S@@](=O)N1Cc2cc(C(=O)NCCN3CCCCC3)nc(-c3cccc(-c4cccc(C#N)c4)c3)c2[C@H]1CCO
7.8[16.7 µM],O=C(C[C@H]1CC[C@H]2[C@@H](COC[C@H](O)CN2C(=O)c2cccnc2)O1)Nc1ccc(-c2ccccc2)cc1
-3.8[16.7 µM],O=C(C[C@@H]1CC[C@H]2[C@@H](COC[C@H](O)CN2Cc2nccs2)O1)NCc1ccc(F)cc1
-8.7[16.7 µM],Cc1ccc(-c2cnc3c(c2)C(=O)N([C@@H](C)CO)C[C@@H](C)[C@H](CN(C)C(=O)c2cccc(F)c2)O3)cc1
-7.2[16.7 µM],CO[C@@H]1CN(C)C(=O)c2cc(NS(=O)(=O)c3cn(C)cn3)ccc2OC[C@@H](C)N(C)C[C@@H]1C
13.2[16.7 µM],CO[C@@H]1CN(C)C(=O)c2ccc(NC(=O)C3CC3)cc2OC[C@@H](C)N(C(=O)Nc2ccccc2F)C[C@H]1C
10.1,O=C1CC2c3cc(-c4cc5ccccc5o4)ccc3CCN2C(=O)CN1Cc1ccccc1 (stereo not given)
-2.9,O=C(NC1CCCC1)[C@@H]1CCCN1C(=O)[C@H](Cc1cccnc1)NC(=O)N1CCOCC1
-9.8[16.7 µM],CC=Cc1ccc2n(c1=O)C[C@H]1[C@H](CO)[C@@H](C(=O)N[C@H](C)c3ccccc3)N(C(=O)c3cnccn3)[C@@H]21 (mixture of isomers)
2.2,CCCCNc1ccc2c(c1)OC[C@H](Cc1ccccc1)NS2(=O)=O
26.3[16.7 µM],COc1ccc(-c2cnc3c(c2)C(=O)N([C@@H](C)CO)C[C@H](C)[C@H](CN(C)S(=O)(=O)c2ccc(OC)cc2)O3)cc1
?,COc1ccc(-c2ccc3c(n2)CCCN3S(=O)(=O)c2ccc(C)cc2)cc1
18.4[16.7 µM],CC(C)NC(=O)Nc1ccc2c(c1)C(=O)N([C@@H](C)CO)C[C@H](C)[C@H](CN(C)C(=O)c1ccncc1)OCCCC[C@@H](C)O2
-13.8,CC(C)(C)S(=O)N1C[C@@H]2CC(=O)C(CCO)=C2[C@H]1CCO (stereo not given in full)

Remaining list, next part
HIV Env fusion,SMILES
32.1[16.7 µM],C[C@H]1CN([C@@H](C)CO)C(=O)c2cc(NS(=O)(=O)c3cccs3)ccc2O[C@H]1CN(C)S(=O)(=O)c1cccs1
45.2,COC(=O)C1=C(C)N(Cc2ccc(C(F)(F)F)cc2)C(=NCc2ccccc2)NC1c1cccc(C(F)(F)F)c1 (stereo not given)
-16.9[16.7 µM],CN1C(=O)c2cc(NS(=O)(=O)c3ccccc3F)ccc2OC[C@@H]2O[C@@H](CC(=O)NC3Cc4ccccc4C3)CC[C@H]21
-4.1[16.7 µM],[N-]=[N+]=NCCCNC(=O)Nc1ccccc1
6.5[16.7 µM],CN1C(=O)c2cc(NC(=O)NC3CCCC3)ccc2OC[C@@H]2O[C@@H](CC(=O)NCC3CC3)CC[C@H]21
15.3,C[C@H]1COc2cc(NCCCN3CCOCC3)ccc2S(=O)(=O)N1
19.1[16.7 µM],C[C@@H]1CN([C@H](C)CO)S(=O)(=O)c2ccc(-c3ccncc3)cc2O[C@H]1CN(C)C(=O)C1CCC1
-9.8[16.7 µM],C[C@@H]1CN([C@H](C)CO)C(=O)c2cc(-c3ccncc3)cnc2O[C@@H]1CN(C)C(=O)C1CCC1
4.6[16.7 µM],CC(C)NC(=O)Nc1ccc2c(c1)C(=O)N(C)[C@@H]1CC[C@H](CC(=O)NCc3ccc(F)cc3)O[C@@H]1CO2
-23.6,COc1ccc(-c2nc3c(C)cc(Br)cn3c2Cc2ccccc2C(F)(F)F)cc1OC
3.8[16.7 µM],O=C(C[C@@H]1CC[C@H]2[C@@H](COC[C@H](O)CN2CCc2ccccc2)O1)NCCCN1CCOCC1
37.4,COc1ccc(Sc2cccc3c2S(=O)(=O)N([C@H](C)c2ccccc2)C[C@@H](COCc2ccccc2)O3)cc1OC
9.0[16.7 µM],COc1ccccc1C(=O)Nc1ccc2c(c1)C(=O)N(C)[C@H]1CC[C@@H](CC(=O)NCCc3ccncc3)O[C@H]1CO2
-14.8[16.7 µM],COc1ccc(NC(=O)Nc2ccc3c(c2)[C@@H]2C[C@H](CC(=O)O)O[C@@H](CO)[C@@H]2O3)cc1
-6.6,COc1cccc(C(=O)N[C@H](C(=O)N2CCC[C@H]2C(=O)NC2CCCC2)c2ccccc2)c1

The final 3 compounds of the section before come first, to join the parts:
HIV Env fusion,SMILES
9.0[16.7 µM],COc1ccccc1C(=O)Nc1ccc2c(c1)C(=O)N(C)[C@H]1CC[C@@H](CC(=O)NCCc3ccncc3)O[C@H]1CO2
-14.8[16.7 µM],COc1ccc(NC(=O)Nc2ccc3c(c2)[C@@H]2C[C@H](CC(=O)O)O[C@@H](CO)[C@@H]2O3)cc1
-6.6,COc1cccc(C(=O)N[C@H](C(=O)N2CCC[C@H]2C(=O)NC2CCCC2)c2ccccc2)c1
-10.3[16.7 µM],O=C(NCCN1CCCCC1)[C@H]1[C@H](CO)[C@H]2Cn3c(cccc3=O)[C@H]2N1Cc1ccccn1
-27.7[16.7 µM],C[C@H]1CN([C@@H](C)CO)C(=O)Cc2cc(NC(=O)Cc3cn(C)c4ccccc34)ccc2O[C@@H]1CN(C)Cc1ccc(-c2ccccc2)cc1
-26.4,Cc1cc(=O)oc2cc(OCc3c(F)cccc3Cl)ccc12
9.5[16.7 µM],COCC(=O)Nc1ccc2c(c1)[C@@H]1C[C@@H](CC(=O)NCc3cccnc3)O[C@@H](CO)[C@@H]1O2
11.6[16.7 µM],CN1C(=O)c2cc(NC(=O)Cc3cccs3)ccc2OC[C@@H]2O[C@@H](CC(=O)NCCCN3CCOCC3)CC[C@@H]21
?,CCCCCCCCN1C(=O)[C@@H](CC(=O)NCC23CC4CC(CC(C4)C2)C3)C[C@@]2(C(=O)OC)C1=C[C@H](C(C)(C)C)O[C@@H]2C
-8.3,CC(C)C1=CC2C3C(=O)N(c4ccccc4)C(=O)C3C1C(=O)C2(C)O (stereo not given)
-13.2[16.7 µM],O=C(C[C@H]1CC[C@@H]2[C@H](COC[C@H](O)CN2C(=O)c2ccccc2)O1)NCCCN1CCOCC1
4.9[16.7 µM],C[C@@H]1CN([C@H](C)CO)C(=O)Cc2cc(NS(=O)(=O)c3ccccc3)ccc2O[C@@H]1CN(C)C(=O)Nc1ccc2c(c1)OCO2
-21.9[16.7 µM],CCCNC(=O)N1CC2(CN(S(=O)(=O)c3ccccc3)C2)c2c(n(C)c3cc(OC)ccc23)[C@@H]1CO
-0.5[16.7 µM],CC(C)NC(=O)Nc1ccc2c(c1)CC(=O)N([C@H](C)CO)C[C@H](C)[C@H](CN(C)Cc1ccc3c(c1)OCO3)O2
-3.5[16.7 µM],CCCNC(=O)Nc1ccc2c(c1)OC[C@@H](C)NC[C@H](C)[C@@H](OC)CN(C)C2=O
69.8*,CCCN(C(=O)CCc1cn(CCC)c2ccccc12)c1ccc(Oc2cccnc2)cc1
-4.5[16.7 µM],CO[C@H]1CC[C@H]2CCOc3ccc(C#N)cc3C(=O)N(C)C[C@@H](c3ccccc3)CC(=O)N(C)C[C@@H]1O2
-6.5[16.7 µM],C/C=C/c1ccc2c(c1)O[C@H](CN(C)C(=O)C1CCC1)[C@@H](C)CN([C@@H](C)CO)S2(=O)=O

Following part.
HIV Env fusion,SMILES
10.3[16.7 µM],CO[C@@H]1CN(C)C(=O)c2cc(NC(=O)C3CCOCC3)ccc2OC[C@@H](C)N(S(=O)(=O)c2ccc(Cl)cc2)C[C@H]1C
24.5[16.7 µM],CN(C)CC#Cc1cccc(-c2nc(C(=O)N3CCN(C)CC3)cc3c2[C@H](CCO)N(S(=O)C(C)(C)C)C3)c1 (stereo not given in full)
-44.9[16.7 µM],O=C(C[C@H]1CC[C@@H]2[C@H](COC[C@H](O)CN2S(=O)(=O)c2ccccc2)O1)NCc1ccc(-c2ccccc2)cc1
-4.4,CN[C@H]1C[C@H]2c3[nH]c4c(-c5ccc6c(c5)OCO6)cccc4c3CCN2C(=O)[C@H]1[C@H](C)O
-7.6[16.7 µM],COCC(=O)Nc1ccc2c(c1)C(=O)N(C)C[C@@H](OC)[C@@H](C)CN(C(=O)Cc1cccnc1)[C@@H](C)CO2
0.1[16.7 µM],C[C@@H]1CN([C@H](C)CO)C(=O)c2cc(NS(=O)(=O)c3cn(C)cn3)ccc2O[C@@H](C)CCCCO[C@@H]1CN(C)CC1CC1
14.6[16.7 µM],C/C=C/c1cnc2c(c1)C(=O)N([C@H](C)CO)C[C@@H](C)[C@@H](CN(C)Cc1ccc3c(c1)OCO3)O2
-2.2[16.7 µM],C[C@H]1CN([C@@H](C)CO)C(=O)c2cccc(NC(=O)C3CC3)c2O[C@H]1CN(C)S(=O)(=O)c1ccc(F)cc1
-3.1[16.7 µM],CN1CCN(C(=O)C[C@@H]2C[C@@H]3c4cc(NC(=O)Cc5ccncc5)ccc4O[C@@H]3[C@H](CO)O2)CC1
-3.2[16.7 µM],CC(C)CC#Cc1cnc2c(c1)C(=O)N([C@@H](C)CO)C[C@@H](C)[C@H](CN(C)C(=O)c1ccccc1F)O2
-22.5[16.7 µM],COc1ccc(NC(=O)N(C)C[C@H]2Oc3ccc(NS(=O)(=O)c4ccc(F)cc4)cc3CC(=O)N([C@@H](C)CO)C[C@H]2C)cc1
1.7,COc1ccc(C2O[C@@H](C)[C@@H]3C(=O)N4CCc5c([nH]c6ccccc56)[C@@H]4C[C@@H]3N2C)cc1 (stereo not given in full)
-46.8[16.7 µM],CS(=O)(=O)Nc1ccc2c(c1)[C@H]1C[C@@H](CC(=O)NCc3cc(F)ccc3F)O[C@H](CO)[C@H]1O2
-18.3,CCC(c1nc2ccccc2[nH]1)n1c(C)nc2ccccc21 (stereo not given)
-25.7[16.7 µM],CC(=O)N(C)C[C@H]1OCc2ccccc2-c2ccccc2C(=O)N([C@@H](C)CO)C[C@@H]1C

Quoted at random: 6 compounds from above, in no set order.
HIV Env fusion,SMILES
-21.9[16.7 µM],CCCNC(=O)N1CC2(CN(S(=O)(=O)c3ccccc3)C2)c2c(n(C)c3cc(OC)ccc23)[C@@H]1CO
-26.4,Cc1cc(=O)oc2cc(OCc3c(F)cccc3Cl)ccc12
-8.3,CC(C)C1=CC2C3C(=O)N(c4ccccc4)C(=O)C3C1C(=O)C2(C)O (stereo not given)
24.5[16.7 µM],CN(C)CC#Cc1cccc(-c2nc(C(=O)N3CCN(C)CC3)cc3c2[C@H](CCO)N(S(=O)C(C)(C)C)C3)c1 (stereo not given in full)
-22.5[16.7 µM],COc1ccc(NC(=O)N(C)C[C@H]2Oc3ccc(NS(=O)(=O)c4ccc(F)cc4)cc3CC(=O)N([C@@H](C)CO)C[C@H]2C)cc1
-4.4,CN[C@H]1C[C@H]2c3[nH]c4c(-c5ccc6c(c5)OCO6)cccc4c3CCN2C(=O)[C@H]1[C@H](C)O

More records
HIV Env fusion,SMILES
14.0[16.7 µM],C[C@@H]1CN([C@@H](C)CO)C(=O)Cc2cc(NC(=O)CCCCCC(=O)Nc3ccccc3N)ccc2O[C@@H]1CN(C)S(=O)(=O)c1ccc(Cl)cc1
0.0[16.7 µM],C[C@H]1CN([C@@H](C)CO)C(=O)c2cc(NS(=O)(=O)c3cccs3)ccc2O[C@@H]1CN(C)S(=O)(=O)c1cccs1
3.1[16.7 µM],CC1=C(C(=O)N2CCC=CC2=O)Cc2ccccc21
-4.8[16.7 µM],C[C@H]1CN([C@@H](C)CO)C(=O)c2cc(NC(=O)CCCN(C)C)ccc2O[C@@H]1CN(C)C(=O)NC1CCCCC1
-5.6[16.7 µM],CC(C)NC(=O)Nc1ccc2c(c1)C(=O)N([C@H](C)CO)C[C@@H](C)[C@H](CN(C)C(=O)NC1CCCCC1)O2
-23.7[16.7 µM],COCC(=O)N(C)C[C@H]1Oc2cc(-c3ccccc3F)ccc2S(=O)(=O)N([C@@H](C)CO)C[C@H]1C
18.9[16.7 µM],CO[C@H]1CC[C@H]2CCOc3c(C#N)cccc3C(=O)N(C)C[C@H](OC)[C@@H](C)C(=O)N(C)C[C@@H]1O2
1.0[16.7 µM],C[C@H](CO)N1C[C@H](C)[C@@H](CN(C)S(=O)(=O)c2ccc(Cl)cc2)Oc2ccc(NC(=O)Cn3cnnn3)cc2C1=O
-34.4,COc1ccc(C2CC(=O)C(c3cccc(Cl)c3)=CN2Cc2ccccc2)cc1 (stereo not given)
11.3[16.7 µM],C[C@H]1CCCCO[C@@H](CN(C)CC2CCCCC2)[C@@H](C)CN([C@@H](C)CO)C(=O)c2cc(NC(=O)CCCN(C)C)ccc2O1
25.8[16.7 µM],COc1cccc(C(=O)Nc2ccc3c(c2)C(=O)N(C)[C@H]2CC[C@H](CC(=O)NCC(F)(F)F)O[C@H]2CO3)c1
-34.1[16.7 µM],C[C@H](CO)N1C[C@H](C)[C@H](CN(C)C)Oc2cc(C3=CCCCC3)ccc2S1(=O)=O
-16.3[16.7 µM],CNC[C@H]1OCc2ccccc2-c2c(n(C)c3ccccc23)C(=O)N([C@H](C)CO)C[C@H]1C
-5.9[16.7 µM],O=C(NCc1ccc2c(c1)OCO2)[C@@H]1[C@@H](CO)[C@@H]2Cn3c(cccc3=O)[C@H]1N2Cc1cccnc1
6.8[16.7 µM],Cc1noc(C)c1S(=O)(=O)N(C)C[C@H]1OCc2ccccc2-c2ccccc2C(=O)N([C@@H](C)CO)C[C@@H]1C

Further results follow:
HIV Env fusion,SMILES
-14.9[16.7 µM],CN1C(=O)c2cc(NC(=O)C3CCOCC3)ccc2OC[C@@H]2O[C@H](CC(=O)NCc3ccc4c(c3)OCO4)CC[C@@H]21
94.4*[16.7 µM],COc1ccccc1CNC(=O)C[C@H]1C[C@@H]2c3cc(NS(=O)(=O)c4ccc(F)cc4)ccc3O[C@@H]2[C@H](CO)O1
0.3[16.7 µM],CCCN1C[C@H](C)[C@H](OC)CN(C)C(=O)c2cc(NC(=O)COC)ccc2OC[C@H]1C
11.0[16.7 µM],C[C@@H]1CN([C@H](C)CO)C(=O)Cc2cc(NC(=O)CCCCCC(=O)Nc3ccccc3N)ccc2O[C@@H]1CN(C)S(=O)(=O)c1ccc(Cl)cc1

Screening results as filed in PubChem BioAssay.

Some of the compounds tested; count on the stated rates, not on these rows.
